Source: PubChem BioAssay (National Center for Advancing Translational Sciences (NCATS))
GLA inh pH 4.5: blocks human alpha-galactosidase A at pH 4.5; purified enzyme, 4-MU-alpha-Gal fluorescence, pH 4.5; activity change, negative = inhibition, % at 105 µM; 230,000 tested, under 10 active; AID 1467; inconclusive = small, poorly fitted or top-dose-only inhibition, or a rising curve; inactive = flat fitted curve, though single readings scatter; no compound was filed as active;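 further: 0% = full activity with enzyme and -100% = basal without enzyme; dose as in the result columns while the protocol names 77 µM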
Target sequence (P06280 whole entry, looked up): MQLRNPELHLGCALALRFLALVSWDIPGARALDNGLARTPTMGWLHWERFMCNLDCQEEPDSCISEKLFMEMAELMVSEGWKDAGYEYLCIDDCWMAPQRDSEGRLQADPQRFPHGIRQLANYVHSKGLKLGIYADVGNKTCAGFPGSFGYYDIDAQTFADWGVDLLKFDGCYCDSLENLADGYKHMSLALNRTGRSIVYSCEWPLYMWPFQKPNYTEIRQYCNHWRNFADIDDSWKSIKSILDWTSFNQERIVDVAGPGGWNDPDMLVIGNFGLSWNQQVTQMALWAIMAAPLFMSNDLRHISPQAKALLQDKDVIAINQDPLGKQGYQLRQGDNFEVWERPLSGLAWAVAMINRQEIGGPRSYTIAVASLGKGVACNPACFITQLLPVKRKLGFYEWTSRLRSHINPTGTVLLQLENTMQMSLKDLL
Rango dissoc inh: inhibition of RanGTP-driven Rango-importin beta dissociation; O95149+P62826; Potency, µM (highest dose often 46.1 µM), for inactives: at the top dose activity change, negative = inhibition; actives 0.071% (n = 340,000); Biochemical FRET Rango-importin beta, RanGTP-induced dissociation; active means falling FRET ratio curve, often poorly fitted, with flat reads before Ran was added; inconclusive means other falling curves, or compound fluorescence or quenching; inactive means flat or rising ratio curve;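 further: potency means the concentration at half of the fitted maximal effect; % of control where 0% means no effect; nearly all actives have a fitted effect of over 45% in size; -100% = wells without RanGTP and RCC1; the record marks most hits as doubtful in a second field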
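Compounds sat 5 min at room temperature with 0.1 uM Rango biosensor plus 0.25 uM importin beta, then FRET pre-read. RanGTP-RCC1 (0.6 uM Ran, 2mM GTP, 0.2 uM RCC1) added for 45 min, and the CFP/YFP post-read measured blocked complex dissociation.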
Rango-impB inh: inhibitors of Rango-importin beta complex formation. Q14974. Rango CFP/YFP FRET sensor + importin beta, 45 min. Potency, µM (doses to about 92.2 µM), for inactives: at the highest dose inhibition of complex formation. actives 0.031% (n = 340,000); active = rising FRET ratio curve, often small or poorly fitted; inconclusive = mostly compound fluorescence or quenching in the first reads; inactive = flat curves in all reads;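 further: potency means the concentration at half of the fitted maximal effect; 0% = DMSO wells and 100% = buffer wells lacking importin beta; nearly all actives have a fitted effect of over 15% in size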
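FRET biosensor Rango (snurportin 1 IBB between N-terminal EYFP and C-terminal Cerulean), 50 nM in PBS/1 mM DTT/0.02% Tween-20/0.1% BSA, preincubated 5 min RT with compound; 0.125 microM importin beta added, 45 min RT, CFP/YFP FRET ratio read.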
miR-21 FLuc: miR-21 reporter, rising signal; HeLa miR-21 FLuc reporter, luciferase, 48 h; Potency, µM (titrated, usually from 38.3 µM), inactives show at the top dose reporter change, positive = more light; 340,000 tested, under 10 active; AID 2288; active = well fitted rising curve with a large enough effect; inconclusive = small, poorly fitted or top-dose-only effect; inactive = no such curve, though single readings can be large or run the other way;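 further: % of control where 0% means no effect; miR-21 action dims this reporter so a rising signal means less miR-21 action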
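HeLa cells endogenously expressing miR-21, stably carrying CMV-driven firefly luciferase with a downstream miR-21 binding site, 2000 cells/well. Titrations up to approximately 40 uM, 48 hours; luciferase luminescence read.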
Starred values were filed as active, the others as inactive; & = joins results of further samples. This is a subset (hit frequency here may not be typical).

CC(/C=N/NC(=O)c1cc(C2CC2)[nH]n1)=C\c1ccccc1 was read as GLA inh pH 4.5 7, Rango dissoc inh 3%, Rango-impB inh 2.2% and miR-21 FLuc -1%.
`Cc1ccc(S(=O)(=O)N2CCOCC2)cc1C(=O)OCC(=O)Nc1ccc2[nH]c(=O)[nH]c2c1` gave Rango dissoc inh inconclusive and Rango-impB inh -2.3%.
Screening S=c1[nH]nc(-c2ccc(Cl)cc2Cl)n1-c1ccccc1 returned Rango dissoc inh 27%, Rango-impB inh -5.1% and miR-21 FLuc -65%.
For CCOC(=O)Nc1ccc2c(c1)N(C(=O)CCN1CCN(C)CC1)c1ccccc1S2 the results were GLA inh pH 4.5 5, Rango dissoc inh 1%, Rango-impB inh -2.1% and miR-21 FLuc -11%.
For CCOCCCNS(=O)(=O)c1ccccc1 the results were GLA inh pH 4.5 1, Rango dissoc inh 9%, Rango-impB inh 0.4% and miR-21 FLuc -2%.
For COc1ccccc1N1CCN(/N=C/C=C\c2ccco2)CC1 the results were GLA inh pH 4.5 -5, Rango dissoc inh -10%, Rango-impB inh 0.0% and miR-21 FLuc -58%.
`OCCN1CCN(c2ncnc3c2c(-c2ccccc2)cn3-c2ccc(F)cc2)CC1` gave GLA inh pH 4.5 0, Rango dissoc inh 2%, Rango-impB inh 2.9% and miR-21 FLuc 0%.
For Cc1cccc(Oc2nc(-c3ccncc3)nc3ccccc23)c1 the results were GLA inh pH 4.5 1, Rango dissoc inh -13%, Rango-impB inh 0.6% and miR-21 FLuc 4%.
Screening CSCCC(NC(=O)c1ccco1)C(=O)Nc1ccncc1 (stereo unspecified) returned Rango dissoc inh -12%, Rango-impB inh 3.8% and miR-21 FLuc -6%.
For CC1(C(=O)Nc2cccc(C(F)(F)F)c2)CO1 (stereo unspecified) the results were GLA inh pH 4.5 13 and miR-21 FLuc 0%.
For CCSc1nnc(CNC(=O)C23CC4CC(CC(C4)C2)C3)n1C1CCCCC1 the results were GLA inh pH 4.5 -2, Rango dissoc inh -4%, Rango-impB inh 2.2% and miR-21 FLuc -2%.
`COc1cccc(-c2coc3c(C)c4oc(=O)c(CCC(=O)O)c(C)c4cc23)c1` gave GLA inh pH 4.5 0, Rango dissoc inh -9%, Rango-impB inh -0.2% and miR-21 FLuc -10%.
CCCCCOC(=O)NCC(O)c1ccccc1 (stereo unspecified) was read as GLA inh pH 4.5 -6, Rango dissoc inh -11%, Rango-impB inh -0.3% and miR-21 FLuc -30%.
For O=S(=O)(Nc1cccc2cccnc12)c1ccccc1 the results were Rango dissoc inh -10%, Rango-impB inh -2.8% and miR-21 FLuc inconclusive.
Screening COc1ccc(C(C)=O)cc1COC(=O)c1ccc(OCc2c(C)noc2C)cc1 returned GLA inh pH 4.5 3, Rango dissoc inh 12%, Rango-impB inh -4.5% and miR-21 FLuc 1%.
CCOC(=O)c1ccc(NC2c3ccccc3C(=O)N2c2ccccn2)cc1 (stereo unspecified) was read as GLA inh pH 4.5 -15, Rango dissoc inh 17%, Rango-impB inh -1.5% and miR-21 FLuc -3%.
Screening CCOC(=O)C(=Cc1cn(C)c2ccc(S(=O)(=O)N(C)C)cc12)C(=O)OCC returned GLA inh pH 4.5 7, Rango dissoc inh 0%, Rango-impB inh 2.4% and miR-21 FLuc -3%.
`O=C1CCN(S(=O)(=O)c2ccc(Br)cc2)CCN1` gave GLA inh pH 4.5 13, Rango dissoc inh 1%, Rango-impB inh -0.1% and miR-21 FLuc -1%.
COc1ccccc1CNC(=O)C1CCCN(S(=O)(=O)c2cccs2)C1 (stereo unspecified) was read as Rango dissoc inh 1%, Rango-impB inh 0.8% and miR-21 FLuc 3%.
For Cc1cc(C)n(CC(O)COCc2ccco2)n1 (stereo unspecified) the results were GLA inh pH 4.5 6, Rango dissoc inh 1%, Rango-impB inh -1.4% and miR-21 FLuc 1%.
Clc1cccc(OCCN2CCNCC2)c1 was read as GLA inh pH 4.5 -3, Rango dissoc inh 2%, Rango-impB inh 0.3% and miR-21 FLuc -1%.
Screening C/C(=N\Nc1ncnc2sc(C)c(C)c12)c1ccccn1 returned Rango dissoc inh inconclusive, Rango-impB inh 3.6% and miR-21 FLuc inconclusive.
`COc1ccc(N(C(=O)Cc2cccs2)C2C=CS(=O)(=O)C2)cc1` (stereo unspecified) gave GLA inh pH 4.5 -4, Rango dissoc inh 10%, Rango-impB inh 0.0% and miR-21 FLuc 6%.
For COc1ccc(C)cc1N(CC(=O)N1CCCCCC1)S(C)(=O)=O the results were Rango dissoc inh -5%, Rango-impB inh -2.9% and miR-21 FLuc -5%.
`O=C1c2ccccc2CCC12N=NCC2c1ccc(Br)cc1` (stereo unspecified) gave GLA inh pH 4.5 -3, Rango dissoc inh 19%, Rango-impB inh 0.6% and miR-21 FLuc -7%.
`CN(C(=O)c1cccc(S(=O)(=O)N2CCCCC2)c1)C1CCS(=O)(=O)C1` (stereo unspecified) gave Rango dissoc inh 3% and Rango-impB inh 3.6%.
For COc1cc(OC)cc(C(=O)Nc2sc3c(c2C(N)=O)CCC3)c1 the results were Rango dissoc inh 5%, Rango-impB inh inconclusive and miR-21 FLuc -23%.
Screening O=C1N=C(N2CCOCC2)S/C1=C\c1cccs1 returned GLA inh pH 4.5 -8, Rango dissoc inh 8%, Rango-impB inh -1.0% and miR-21 FLuc -32%.
`CCN(C(=O)c1cccs1)c1nc(-c2ccc(OC)cc2)cs1` gave GLA inh pH 4.5 1, Rango dissoc inh -2%, Rango-impB inh -1.3% and miR-21 FLuc -20%.
O=C(CNC1CCCCCC1)c1cccs1 was read as GLA inh pH 4.5 3, Rango dissoc inh 5%, Rango-impB inh 4.1% and miR-21 FLuc -3%.
`COc1cc(C(=O)NC(=S)Nc2ccc3c(c2)OCO3)cc(OC)c1OC` gave GLA inh pH 4.5 -3, Rango dissoc inh -14%, Rango-impB inh 6.6% and miR-21 FLuc 1%.
`CC(C)(C)[C@H]1C=C(C(=O)O)O[C@@H](OCCCCO)C1` gave Rango dissoc inh 2% and Rango-impB inh -0.1%.
`Cc1ccccc1CC1(CO)CCCN(C(=O)c2ccccc2N(C)C)C1` (stereo unspecified) gave GLA inh pH 4.5 -4, Rango dissoc inh -12%, Rango-impB inh -0.6% and miR-21 FLuc 0%.
Screening O=C1Nc2ccccc2C1Cc1ccc(OC(F)(F)F)cc1 (stereo unspecified) returned Rango dissoc inh 10%, Rango-impB inh -0.6% and miR-21 FLuc 1%.
For COc1ccc2oc(C(=O)Nc3nnc(C)s3)c(C)c2c1 the results were Rango dissoc inh -19% and Rango-impB inh -4.0%.
`CN(C)c1ccc(C(=O)OCC(=O)NCCCc2ccccc2)cc1` gave Rango dissoc inh 2%, Rango-impB inh 2.3% and miR-21 FLuc -2%.
`Cc1cccc(CSc2nnc([C@@H]3CCCN3)o2)c1` gave GLA inh pH 4.5 8, Rango dissoc inh -11%, Rango-impB inh -0.1% and miR-21 FLuc -6%.
Screening COc1ccc2nc3ccccc3[n+]([O-])c2c1 returned Rango dissoc inh inconclusive and Rango-impB inh inconclusive.
For O=C(CN1CCCCC1)N/N=C/c1cccc(Cl)c1 the results were Rango dissoc inh 6%, Rango-impB inh 1.2% and miR-21 FLuc -1%.
COc1cc2c(cc1OC)C(C)N(CCc1ccc(Cl)cc1)CC2 (stereo unspecified) was read as Rango dissoc inh -18% and Rango-impB inh 4.0%.

Quoted at random: 2 records from the list
Screening C/C(=N\Nc1ncnc2sc(C)c(C)c12)c1ccccn1 returned Rango dissoc inh inconclusive, Rango-impB inh 3.6% and miR-21 FLuc inconclusive.
O=C(CNC1CCCCCC1)c1cccs1 was read as GLA inh pH 4.5 3, Rango dissoc inh 5%, Rango-impB inh 4.1% and miR-21 FLuc -3%.

The listing continues.
Cc1ccccc1NC(=O)c1c([N+](=O)[O-])cnn1C was read as Rango dissoc inh -16%, Rango-impB inh -1.1% and miR-21 FLuc 3%.
COc1ccc(N2CCN(C(=O)C3CC(=O)N(c4ccc(C)cc4)C3)CC2)cc1 (stereo unspecified) was read as GLA inh pH 4.5 0, Rango dissoc inh 0%, Rango-impB inh -0.1% and miR-21 FLuc -1%.
`CN(C)c1ccc(/C=C2\N=C(c3ccc(Cl)c([N+](=O)[O-])c3)NC2=O)cc1` gave GLA inh pH 4.5 5, Rango dissoc inh 18%, Rango-impB inh 1.2% and miR-21 FLuc -1%.
`CS(=O)c1ccccc1-c1nc(-c2cc(C(F)(F)F)cc(C(F)(F)F)c2)no1` (stereo unspecified) gave GLA inh pH 4.5 -2, Rango dissoc inh -8%, Rango-impB inh inconclusive and miR-21 FLuc -2%.
CS(=O)(=O)N1CCN(C(=O)c2ccc(Br)s2)CC1 was read as GLA inh pH 4.5 0, Rango dissoc inh 2%, Rango-impB inh inconclusive and miR-21 FLuc 1%.
`Cn1c(C(=O)O)c(CC(=O)NCc2cccnc2)c2ccccc21` gave GLA inh pH 4.5 6, Rango dissoc inh 4%, Rango-impB inh -0.7% and miR-21 FLuc -3%.
CCOc1ccc(S(=O)(=O)NC2CC2)cc1 was read as Rango dissoc inh 0%, Rango-impB inh -1.8% and miR-21 FLuc -4%.
O=C(CN1C(=O)CSc2ccc(S(=O)(=O)N3CCOCC3)cc21)NCCCN1CCCCC1 was read as Rango dissoc inh inconclusive, Rango-impB inh -0.5% and miR-21 FLuc -4%&-1%.
Screening C[C@H](CO)N1C[C@H](C)[C@H](CN(C)CC2CC2)Oc2ccc(NC(=O)CCN3CCOCC3)cc2C1=O returned Rango dissoc inh 5% and Rango-impB inh 1.7%.
`O=C(COC(=O)c1cc(Cl)ccc1[N+](=O)[O-])NCc1ccc(Cl)cc1Cl` gave GLA inh pH 4.5 -10, Rango dissoc inh -2%, Rango-impB inh -0.9% and miR-21 FLuc 9%.
`CCc1nnc(NS(=O)(=O)c2ccc(N=Cc3c(C)[nH]n(-c4ccc(Cl)cc4)c3=O)cc2)s1` gave GLA inh pH 4.5 3, Rango dissoc inh 7%, Rango-impB inh -1.2% and miR-21 FLuc -19%.
Screening CCOC(=O)N1CCN(C(=S)NC(=O)/C=C/c2ccc(C)cc2)CC1 returned Rango dissoc inh 12%, Rango-impB inh 0.5% and miR-21 FLuc -7%.
O=S(=O)(NCC1CCCO1)c1ccc(S(=O)(=O)N(Cc2ccccn2)C2CC2)cc1 (stereo unspecified) was read as GLA inh pH 4.5 -6, Rango dissoc inh 19%, Rango-impB inh 0.0% and miR-21 FLuc 3%.
Cc1cc(N/N=C/c2ccccc2O)c2ccccc2n1 was read as Rango dissoc inh inconclusive, Rango-impB inh inconclusive and miR-21 FLuc 4%.
Screening O=C(Cc1ccccc1)Nc1c[nH]c(=O)[nH]c1=O returned GLA inh pH 4.5 -2, Rango dissoc inh -2%, Rango-impB inh 0.6% and miR-21 FLuc -5%.
C[C@@H](C(=O)Nc1ccc2ccccc2c1)[C@@H]1C[C@@]1(C)[C@@H](NC(=O)c1cnccn1)c1ccccc1 was read as GLA inh pH 4.5 3&-12, Rango dissoc inh 7%, Rango-impB inh 0.3% and miR-21 FLuc 0%.
Screening CC(/C=N/Nc1nc(C)cc(C)n1)=C\c1ccc(C(C)C)cc1 returned GLA inh pH 4.5 -11, Rango dissoc inh -4%, Rango-impB inh -1.6% and miR-21 FLuc -8%.
`O=C(Nc1cc(S(=O)(=O)N2CCOCC2)ccc1OCC(F)(F)F)c1ccc(N2CCCC2=O)cc1` gave Rango dissoc inh -17% and Rango-impB inh 0.6%.
For CN(C)C(/C=C/Nc1cccc([N+](=O)[O-])c1)=C(C#N)C#N the results were GLA inh pH 4.5 -8, Rango dissoc inh 3%, Rango-impB inh -3.5% and miR-21 FLuc -22%.
`O=C(NCCC1=CCCCC1)C1CCN(C(=O)c2ccc(Br)cc2)CC1` gave GLA inh pH 4.5 5, Rango dissoc inh 0%, Rango-impB inh inconclusive and miR-21 FLuc -2%.
O=c1cnn(-c2ccccc2)c(-c2ccccc2)c1 was read as GLA inh pH 4.5 18, Rango dissoc inh -4%, Rango-impB inh -1.8% and miR-21 FLuc 3%.
For Cc1cccc(C(=O)NCC(=O)N2CCN(S(=O)(=O)c3cc(C)ccc3C)CC2)c1 the results were Rango dissoc inh -3% and Rango-impB inh -7.9%.
